VACV mCherry inh – qHTS for Stage-Specific Inhibitors of Vaccinia Orthopoxvirus: mCherry Reporter Primary qHTS | Potency, µM (top dose mostly 36.5 µM), for the others: top-dose activity change, negative = inhibition, usual class: inhibitors | AID 720579, 2013 | Vaccinia virus mCherry reporter infection, fluorescence; about a quarter of the inactives have no number | 310,000 tested, 0.63% active; active = well fitted inhibition curve with a large enough effect; inconclusive = small, poorly fitted or top-dose-only effect; inactive = no such curve, though single readings can be large or run the other way; tested in A549 cells; also: nearly all actives have a fitted effect of over 35% in size; inactives centre near -10
VACV Venus inh – qHTS for Stage-Specific Inhibitors of Vaccinia Orthopoxvirus: Venus Reporter Primary qHTS | Vaccinia virus Venus reporter expression, fluorescence | Potency, µM (doses to about 36.5 µM), inactives show at the top dose activity change, negative = inhibition, usual class: inhibitors | 330,000 tested, 0.46% active | AID 720580, 2013; active means well fitted inhibition curve with a large enough effect; inconclusive means small, poorly fitted or top-dose-only effect; inactive means no such curve, though single readings can be large or run the other way; tested in A549 cells; also: nearly all actives have a fitted effect of over 30% in size; inactives centre near -10
Starred values were filed as active, the others as inactive; i = inactive; ? = inconclusive; nt = not tested or not shown; & = joins results of further samples; [ ] = remark or other dose. % is scaled to controls: 0 for no effect and ±100 for the full control effect; potency is read from the fitted curve at half-maximal effect.

Compound | VACV Venus inh | VACV mCherry inh
Cc1cccc(Nc2c(O)nc[nH]c2=O)c1 | 14% | -12%
O=C(CSc1nc(-c2ccccc2Cl)ns1)NCc1ccc2c(c1)OCO2 | -17% | -6%
COc1ccccc1CN(C)C(=O)C1(c2ccc(Cl)cc2)CC1 | 0% | -12%
COc1ccc(F)cc1-c1cc(C(=O)NC2CCCCC2)[nH]n1 | -18% | -12%
O=C1C(=O)N(Cc2cccc([N+](=O)[O-])c2)c2ccccc21 | 4% | -14%
O=C(Nc1ccc2c(c1)oc1ccccc12)C1CC1 | -18% | i
CN(Cc1cccnc1)C(=O)CC1C(=O)NCCN1Cc1ccc(-c2ccccc2)cc1 (configuration not stated) | 9% | -6%
CCCc1cc(C(=O)NC2CCCN(Cc3ccccc3F)C2)no1 (configuration not stated) | -16% | -9%
COc1ccc(S(=O)(=O)N2CCN(c3ccc(F)cc3)CC2)cc1C(=O)N1CCCC1 | -14% | -23%
COc1ccc(-n2nnnc2SCC(=O)NCc2cccs2)cc1 | -4% | -9%
COc1ccccc1NS(=O)(=O)c1cccc(C(=O)N2CC(C)OC(C)C2)c1 (configuration not stated) | 3% | -6%
O=C(NCc1ccc(-c2nc3ccccc3s2)cc1)c1cc2ccccc2o1 | 4% | -7%
COc1ccccc1/C=N/NC(=O)CSc1cc(C)nc2ccccc12 | -19% | -7%
COc1ccc(CNc2nc3ccccc3n2CCN2CCCCC2)c(OC)c1 | -16% | -16%
Cc1ccc(-n2nnnc2CNC(=O)C(C)C)cc1C | -11% | -10%

Whole records, looked up by structure. Order of screens: VACV Venus inh | VACV mCherry inh
`COc1ccc(CNc2nc3ccccc3n2CCN2CCCCC2)c(OC)c1` in the list: -16% | -16%
`COc1ccc(F)cc1-c1cc(C(=O)NC2CCCCC2)[nH]n1` in the list: -18% | -12%
`COc1ccc(-n2nnnc2SCC(=O)NCc2cccs2)cc1` in the list: -4% | -9%
`CN(Cc1cccnc1)C(=O)CC1C(=O)NCCN1Cc1ccc(-c2ccccc2)cc1` (configuration not stated) in the list: 9% | -6%

Carrying on.
Compound | VACV Venus inh | VACV mCherry inh
Cc1ccc(CNC(=O)/C=C/C(=O)O)cc1 | -4% | i
COCCNC(=O)c1ccc(-c2cn[nH]c2)c2ccoc12 | -8% | -4%
COC(=O)c1cc(S(=O)(=O)N2CCN(c3cccc(C)c3)C(C)C2)c[nH]1 (configuration not stated) | -3% | -12%
Cc1ccc(C(C)C)c(Oc2nnnn2-c2ccccc2)c1 | -17% | -9%
CC(C)CNC(=O)COCc1cc(-c2ccc3c(c2)OCO3)on1 | -6% | -12%
COc1ccc(OC)c(S(=O)(=O)N2c3cc(F)ccc3CCC2C)c1 (configuration not stated) | -9% | -20%
CCN(CC)C(=O)CSc1n[nH]c(=O)n1CCc1ccccc1 | -3% | i
Cc1sc2nc(COC(=O)c3ccc(N4CCCC4)c([N+](=O)[O-])c3)[nH]c(=O)c2c1C | -3% | -11%
CCCCOc1ccc(C(=O)NCC(=O)NC(C)CCc2ccccc2)cc1 (configuration not stated) | -5% | i
Cc1cc(N2CCCCC2)nc2ccc(NC(=O)CCC(=O)N3CCN(c4ccccc4)CC3)cc12 | -23% | -21%
O=C(COC(=O)Cc1cccs1)Nc1cccc(S(=O)(=O)N2CCOCC2)c1 | -2% | i
COc1ccc(-c2csc3nc(C)nc(N4CCN(C(C)=O)CC4)c23)cc1OC | -10% | -15%
CCc1ccccc1NC(=O)Cn1c(-c2nonc2N)nc2ccccc21 | 3% | 6%
O=C(O)CSC(=S)N1CCCC1 | 0% | -5%
COc1ccc(C2Nc3ccccc3C(=O)N2O)cc1CN1CCOCC1 (configuration not stated) | -3% | -14%

Two entries picked at random from those above:
Compound | VACV Venus inh | VACV mCherry inh
COCCNC(=O)c1ccc(-c2cn[nH]c2)c2ccoc12 | -8% | -4%
Cc1ccc(C(C)C)c(Oc2nnnn2-c2ccccc2)c1 | -17% | -9%

Remaining list, next part:
Compound | VACV Venus inh | VACV mCherry inh
CC(=O)C1=C(C)NC(SCc2cccc3ccccc23)=C(C#N)C1c1ccco1 (configuration not stated) | 1% | -23%
O=C(NCc1ccccn1)c1c(O)c2c([nH]c1=O)CCCC2 | -16% | ?
Cc1cccc(NC(=O)c2ccc3ccccc3n2)c1C | -10% | -5%
COCCCNC(=O)c1sc2nc3n(c(=O)c2c1C)CCC3 | 0% | 4%
O=C(NC1CCCCC1)c1ccc(S(=O)(=O)N2CCOCC2)cc1 | -8% | i
CC(C)[C@@H](CSc1ccccc1)N1CCN(Cc2ccccc2)CCC1=O | -7%&-10% | ?
CCOc1ccc(CCNC(=O)CN2C(=O)COc3ccc(S(=O)(=O)N(CC)CC)cc32)cc1 | -6% | -4%
COc1ccc(/C=N/N(C)c2cc(=O)n(C)c(=O)[nH]2)cc1OC | -16% | i
Cc1ccc(SCC(=O)OCC(=O)NCCC2=CCCCC2)cc1 | -14% | ?
O=Nc1c(O)[nH]c2ccc(F)cc12 | -25% | -6%
CCOC(=O)c1c(NC(=O)CSc2nnc(-c3ccc(C)cc3)o2)sc(C(C)=O)c1C | -18% | -10%
O=C(Nc1nnc(S(=O)(=O)N2CCCCCC2)s1)c1ccccc1F | -11%&-7% | -14%&-8%
Cc1cc(C)n(C(=O)CNC(=O)c2cccs2)n1 | 3% | -14%
O=C(Nc1ccc(NC(=O)C2CC2)nc1)c1ccco1 | -3% | -11%
O=C(COc1cc(Cl)c(Cl)cc1Cl)NC(=O)NC1CCCC1 | -4% | i
CS(=O)(=O)N(CC(=O)N1CCOCC1)c1cccc([N+](=O)[O-])c1 | -9% | i
COc1cc(OC)c2c3c(c(C4CCCCC4)nc2c1)CCC3 | ? | -12%
COc1ccc(C2C(=O)N(C3CCC(C)CC3)CC(=O)N2Cc2ccc(C)cc2)cc1OC (configuration not stated) | -10% | -9%
CC1(Cc2cccc(C#N)c2)C(=O)Nc2c(Cl)cccc21 (configuration not stated) | 12% | 15%
COc1ccc(N2CCN(S(=O)(=O)CCNC(=O)COc3cccc(OC)c3)CC2)cc1 | -24%&-15% | -6%&-14%
CCOC(=O)[C@]12CCCC=C1N(Cc1ccccc1)C(=O)[C@H](CC(=O)NCc1ccccc1)C2 | -26% | -27%
CC(C)c1ccc(C(=O)C[N+]2(C)CCOCC2)cc1 | -16% | i
O=C(OCCOc1ccccc1)c1cc(S(=O)(=O)N2CCOCC2)c(Cl)cc1Cl | -8% | 0%
NS(=O)(=O)c1cnccc1Nc1cccc(F)c1 | 1%[7.34 µM] | i[7.34 µM]
COc1cccc(CNn2c(-c3cccc(C)c3)nc3ccccc3c2=O)c1 | -9% | i
CCC1CN(C(=O)N2CCC(C(=O)NCc3ccco3)CC2)c2ccccc2O1 (configuration not stated) | -8% | 1%
CCOC(=O)c1cc(-c2ccccc2)n(Cc2cc(CC)no2)n1 | -13% | -5%
CN(C)c1ccc(C(CNS(=O)(=O)c2ccccc2)N2CCc3ccccc32)cc1 (configuration not stated) | -1% | -6%
CCCn1cc(S(=O)(=O)c2ccc(C)cc2)c(=O)c2cc(F)c(N3CCCC3)cc21 | -6% | -13%
Brc1ccc2nc(C3CCCCC3)c(Cc3ccsc3)n2c1 | 4% | i

Some of the entries above, set out differently.
COc1ccc(C2C(=O)N(C3CCC(C)CC3)CC(=O)N2Cc2ccc(C)cc2)cc1OC (configuration not stated)
  VACV Venus inh: -10% | VACV mCherry inh: -9%

CC1(Cc2cccc(C#N)c2)C(=O)Nc2c(Cl)cccc21 (configuration not stated)
  VACV Venus inh: 12% | VACV mCherry inh: 15%

COc1ccc(N2CCN(S(=O)(=O)CCNC(=O)COc3cccc(OC)c3)CC2)cc1
  VACV Venus inh: -24%&-15% | VACV mCherry inh: -6%&-14%

Other records follow.
Compound | VACV Venus inh | VACV mCherry inh
COc1cc(C(=O)NCCSc2ccccc2)cc(OC)c1OC | -5% | -14%
Cc1cccc(-c2n[nH]c(=S)n2/N=C/c2ccc(C)o2)c1 | 4% | -1%
O=C(Nc1cccc(C(F)(F)F)c1)c1csc([C@@H]2O[C@H](CO)[C@H](O)[C@H](O)[C@H]2O)n1 | 19% | 15%
CC(=O)N1CCN(C2=Nc3cccc4cccc2c34)CC1 | 8% | 1%
N#CC1=C(N)OC2=C(C(=O)CCC2)C12CCN(C(=O)OCc1ccccc1)CC2 | -9% | -11%
CCOP(=S)(OCC)C(O)CCCCCn1c(=O)c(F)cn(C2CCCO2)c1=O (configuration not stated) | -12% | -12%
Cc1cc(C)c(C)c(S(=O)(=O)Nc2cccnc2)c1C | -3%[7.34 µM] | -1%[7.34 µM]
CCOCCCN(C(=O)CCC(=O)Nc1cc(C)on1)C(C(=O)NC(C)(C)C)c1ccccc1Cl (configuration not stated) | 5% | -4%
CC(C)Cn1cc(C(=O)N2CCN(c3cccc(Cl)c3)CC2)c2c3ccccc3n(C)c2c1=O | -19% | -12%
O=C(O)CCCCCN1C(=O)C(O)=C(C(=O)/C=C/c2ccccc2)C1c1cccc([N+](=O)[O-])c1 (configuration not stated) | 6% | i
Cc1ccc(C(=O)N/N=C\c2cc3c(cc2Br)OCO3)cn1 | 2% | -3%
O=C(O)c1cccc(N=C2NC(=O)C(CO)(CO)S2)c1 | -7% | i
CS(=O)(=O)c1ccc(Cl)c(NC(=O)c2ccc3ccccc3c2)c1 | 0% | -14%
COc1cccc(CNC(=O)CCCn2nc(C)c3sc4ccccc4c3c2=O)c1 | -13% | -13%
CCCc1cc(C(N)=O)c(NC(=O)C2CCCO2)s1 (configuration not stated) | -11% | i
CSc1ccc(CNC(=O)Cn2nc(N3CCN(c4ccccc4)CC3)ccc2=O)cc1 | -9% | -13%
CC(C)Cn1c(=O)[nH]c2ccccc21 | -28% | nt
CCC1(CC)Nc2ccccc2C(=O)N1c1ccc(NC(C)=O)cc1 | -9% | nt
CCOC(=O)C1(C(=O)OCC)COC(=O)C1CN1Cc2cc3ccccc3nc2C1 (configuration not stated) | -6% | -13%
CCCC(=O)NCC(c1ccc2c(c1)OCO2)N1CCN(c2ccccc2)CC1 (configuration not stated) | 3% | -9%
CCOc1ccc(Nc2ncnc3c2cnn3-c2ccccc2)cc1 | -27% | i
O=C(NCCC1CCCCN1S(=O)(=O)c1ccccc1)C(=O)NCc1cccnc1 (configuration not stated) | -7% | -19%
CCSc1nnc(NC(=O)CSc2sc3c(O)cc(=O)[nH]c3c2C#N)s1 | -2% | -19%
CSc1ccc(-c2nnn(Cc3ccc(C)cc3)n2)cc1 | -4% | -16%[1.46 µM]
CC1CN(Cc2ccc(Cl)cc2Cl)CC(C)O1 (configuration not stated) | -10% | nt
COc1ccc(/C=C/C(=O)Nc2cccc(S(=O)(=O)N3CCOCC3)c2)cc1OC | -23% | -6%
CCOc1cccc2sc(NC(=O)c3ccc(S(=O)(=O)N4CCCCC4)cc3)nc12 | -10% | -7%
COc1ccc(C(=O)NC2CCN(CC(=O)NCc3ccccc3)CC2)cc1 | -1% | 11%
S=C(NCc1ccco1)Nc1ccc(Cl)cc1Cl | -9% | -18%
CC(C)NC(=O)c1ccc2c(c1)N(CC(=O)Nc1ccccc1F)C(=O)C(C)(C)O2 | -14% | -26%
COc1cc(/C=N/n2cnnc2)ccc1OCc1ccc(C)cc1 | -5% | -14%
COc1ccc(S(=O)(=O)N2CCOCC2)cc1C(=O)Nc1cccc(C(=O)NC2CC2)c1 | -20% | 3%
